gsp agonist: agonists of gsp mutant (McCune-Albright syndrome) | hit rate 0.13% among 340,000 | AID 624287 | Potency, µM (highest dose often 76.9 µM), for inactives: top-dose activation (cAMP increase), hits mostly activators | gsp mutant cells, cAMP HTRF, 30 min; control for the full effect not named in the record; active = well fitted activation curve with a large enough effect; inconclusive = small, poorly fitted or top-dose-only effect, or another doubt; inactive = no such curve, though single readings can be large or run the other way; cell line not stated here;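 also: phosphodiesterase inhibitor Ro 20-1724 added with compounds to block cAMP breakdown; potency is read from the fitted curve at half-maximal effect; nearly all actives have a fitted effect of over 60% in size; about a fifth of the inactives were tested at one dose only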
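Cells stably selected in G418 were plated at 2000/well, grown 16-24 hr, then given compounds in DMSO with the PDE inhibitor […] (300 uM solution added) for 30 min at 37C; cAMP was read by HTRF.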
gsp antagonist: antagonizes gsp, the McCune-Albright syndrome mutation; Potency, µM (series often up to 76.9 µM), for the others: at the highest dose activity change, negative = inhibition, actives largely listed as inhibitors; hit rate 0.4% among 340,000; AID 624288; gsp-mutant cells, cAMP HTRF, 30 min; control for the full effect not named in the record; active = falling curve of any shape with a large fitted effect; inconclusive = falling curve, mostly with a smaller effect; inactive = flat or rising curve; cell line not stated here;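 also: intracellular cAMP measured with PDE inhibitor Ro 20-1724 present during compound exposure; potency is read from the fitted curve at half-maximal effect; % is scaled to controls: 0 for no effect and ±100 for the full control effect; nearly all actives have a fitted effect of over 65% in size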
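Measurement of cellular cAMP by homogeneous time-resolved fluorescence following a 30 min compound exposure at 37C. The PDE inhibitor […] was present throughout; the assay buffer was DPBS with 0.05% BSA and 0.005% Tween 20.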
ClpP mod: qHTS Assay for Activators of ClpP; ATP-dependent Clp protease proteolytic subunit (Bacillus subtilis (strain 168)), P80244; purified B. subtilis ClpP, FRET peptide cleavage, 20 min; Potency, µM (titrated, usually from 57.5 µM), without a hit: top-dose activity change, negative = active; hit rate 1.9% among 340,000; AID 651965, 2013; active = well fitted falling curve with a large enough effect; inconclusive = small, poorly fitted or top-dose-only effect; inactive = no such curve, though single readings can be large or run the other way; also: potency is read from the fitted curve at half-maximal effect; the source files actives as falling curves though it sought activators and does not explain the sign; nearly all actives have a fitted effect of over 65% in size; many hits overshoot -100%
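ClpP 10 microg/mL final, pH 8 Tris/KCl buffer with BSA, glycerol, Tween-20; compound pinned in; FRET-FV substrate; RT 20 min; Ex320/Em430; ΔFRET vs ADEP 5.8 microM, DMSO, no enzyme.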
Menin MLL FP FL: displaces fluorescein MLL peptide from human menin. AID 1766. 290,000 tested, under 10 active. Fluorescence polarization, fluorescein-MLL peptide displacement from menin. FP activity change, % at 61.4 µM; inconclusive = falling polarisation curve, or a change in total fluorescence; inactive = total fluorescence flat and polarisation flat or rising; no compound was filed as active; the % refers to the polarisation; negative = inhibition;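 also: % of control where 0% means no effect; inhibitors lower the polarisation; unlabelled MLL peptide was the positive control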
TRPML1 blocker: inhibitors of human TRPML1 channel | Q9GZU1 | TRPML1-inducible cells, Ca2+ dye fluorescence, FDSS; active compounds read low; inhibition of EC80 agonist-evoked calcium signal | activity change, negative = inhibition, % (concentration not given with the values) | hit rate 0.02% among 390,000 | AID 624415; in the data active means activity change below about -50%; inconclusive means about -30% to -50%; inactive means above about -30%;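 also: stimulus is agonist 54-4 at its EC80 concentration; % is scaled to controls: 0 for no effect and ±100 for the full control effect; the text of the record puts the active cut at -80%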
Target sequence (Q9GZU1 whole entry, looked up): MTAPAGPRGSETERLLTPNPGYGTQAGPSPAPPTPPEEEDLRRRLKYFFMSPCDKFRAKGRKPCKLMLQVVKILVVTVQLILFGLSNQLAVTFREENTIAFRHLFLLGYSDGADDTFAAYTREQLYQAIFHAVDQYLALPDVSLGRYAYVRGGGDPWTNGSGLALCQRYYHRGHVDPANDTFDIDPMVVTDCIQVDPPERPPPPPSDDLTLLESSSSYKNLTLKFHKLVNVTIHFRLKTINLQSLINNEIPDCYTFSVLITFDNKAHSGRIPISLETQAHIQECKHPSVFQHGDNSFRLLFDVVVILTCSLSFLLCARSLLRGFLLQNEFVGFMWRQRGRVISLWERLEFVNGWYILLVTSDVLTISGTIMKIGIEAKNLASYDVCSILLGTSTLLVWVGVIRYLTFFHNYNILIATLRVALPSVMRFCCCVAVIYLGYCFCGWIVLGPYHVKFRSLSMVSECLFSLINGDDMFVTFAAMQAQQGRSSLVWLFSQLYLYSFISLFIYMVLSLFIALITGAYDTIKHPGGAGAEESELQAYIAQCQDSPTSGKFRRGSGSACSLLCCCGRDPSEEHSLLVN
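Tet-induced TRPML1-DL cells loaded with Ca8 no-wash calcium dye were read kinetically on FDSS. Compound addition was followed by EC80 agonist 54-4 (4 uM final); inhibition was read over 110 s.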
TRPML1 ag: human mucolipin-1 channel agonism; TRPML1-expressing cells, Ca2+ dye fluorescence, FDSS; host cell line not named in the record; reference of the full effect not given here; activation, % (concentration not given with the values); hit rate 0.12% among 410,000; AID 624414; in the data active = activation above about 50%; inconclusive = about 30% to 50%; inactive = below about 30%; also: 0% is about no effect; the text of the record puts the active cut at 80%
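Tet-induced TRPML1-DL cells, 1,500 per well, cultured overnight, were loaded with a no-wash Ca2+ dye for 45–90 min. Calcium fluorescence was recorded on the FDSS for 110 s after compound addition, before the EC80 agonist (4 uM 54-4) was added.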
* = called active by the depositor; ? = inconclusive. Only part of the results is shown (hit frequency here may not be typical).

SMILES	gsp agonist	gsp antagonist	ClpP mod	Menin MLL FP FL	TRPML1 blocker	TRPML1 ag
CCN(CC)S(=O)(=O)c1ccc(C(=O)O)cc1	?	8%	0.2%	-2.2	-6	0.9

Source: PubChem BioAssay (National Center for Advancing Translational Sciences (NCATS))
